KCNQ2 pot: potentiators of rat KCNQ2 potassium channel. CHO-K1 KCNQ2, FluxOR thallium flux fluorescence; active compounds read high. B-score at 10 µM. actives 0.54% (n = 310,000). AID 2239, 2010;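 active = fluorescence ratio B-score at least 3 SD of library B-scores, with initial fluorescence B-score within 3 SD, cut at about 5.3 in these data; same plate scores as AID 2156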;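 note: B-score of peak minus minimum over baseline fluorescence ratio after K+ and Tl+ stimulus; positive B-score means potentiation of KCNQ2 with more thallium influx and brighter signal; only the inactives scoring about 0 or higher are listed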
Target sequence (O88943 whole entry, looked up): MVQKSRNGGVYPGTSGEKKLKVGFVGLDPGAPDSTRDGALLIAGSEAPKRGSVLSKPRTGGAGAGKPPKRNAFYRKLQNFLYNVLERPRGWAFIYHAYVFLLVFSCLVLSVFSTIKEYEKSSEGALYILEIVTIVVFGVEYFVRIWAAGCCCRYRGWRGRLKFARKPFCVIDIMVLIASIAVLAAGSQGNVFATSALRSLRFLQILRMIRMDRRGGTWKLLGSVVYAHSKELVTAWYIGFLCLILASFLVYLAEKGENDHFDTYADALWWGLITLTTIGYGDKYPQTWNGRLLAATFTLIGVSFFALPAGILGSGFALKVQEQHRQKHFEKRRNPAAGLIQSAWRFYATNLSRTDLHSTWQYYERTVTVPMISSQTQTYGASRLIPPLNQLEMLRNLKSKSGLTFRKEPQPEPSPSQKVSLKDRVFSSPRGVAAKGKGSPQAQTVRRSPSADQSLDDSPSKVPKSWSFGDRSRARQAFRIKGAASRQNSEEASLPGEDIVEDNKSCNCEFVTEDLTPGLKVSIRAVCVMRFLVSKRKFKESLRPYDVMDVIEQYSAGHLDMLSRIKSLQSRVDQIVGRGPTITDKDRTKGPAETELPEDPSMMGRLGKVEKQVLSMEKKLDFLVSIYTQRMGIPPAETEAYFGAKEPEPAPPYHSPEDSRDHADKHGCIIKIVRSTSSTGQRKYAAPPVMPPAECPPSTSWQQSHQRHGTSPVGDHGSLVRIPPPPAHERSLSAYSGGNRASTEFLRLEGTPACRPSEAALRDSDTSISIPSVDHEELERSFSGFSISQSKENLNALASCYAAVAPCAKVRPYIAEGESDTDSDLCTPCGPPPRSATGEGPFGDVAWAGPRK
KCNQ2 pot baseline: also measured in KCNQ2 pot; calls as there; B-score; compound at 10 µM; measured here: initial fluorescence intensity artifact check;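 brightness before thallium and not channel activity; 0 = typical well and far values either way flag optical interference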
An asterisk follows results filed as active.

Results for O=C1c2ccccc2C(=O)N1CCOCCN1C(=O)c2ccccc2C1=O ?
KCNQ2 pot: 0.36; KCNQ2 pot baseline: -1.15

What do the screens show for `Cc1ccc2c(c1)Sc1c(ccc3ccccc13)N2`?
KCNQ2 pot: 1; KCNQ2 pot baseline: 0.04

What do the screens show for `Cn1ccc(C(=O)Nc2sc3c(c2C(N)=O)CCCCC3)n1`?
KCNQ2 pot: 0.59; KCNQ2 pot baseline: 1.56

Results for COc1cc(C(=O)Nc2ccc(C(=O)NCC3CCCO3)cc2)cc(OC)c1OC (centres undefined) ?
KCNQ2 pot: 0.37; KCNQ2 pot baseline: 0.72

How did O=C(COc1ccc(Cl)cc1Br)NNC(=O)C(=O)N1CCCCC1 do in these assays?
KCNQ2 pot: 0.97; KCNQ2 pot baseline: 2.84

What do the screens show for `O=C(NNc1cc(C(F)(F)F)nc2ccccc12)Nc1cccc(Cl)c1`?
KCNQ2 pot: 0.16; KCNQ2 pot baseline: -1.65

Results for O=C(/C=C/c1cccs1)N1CCN(c2ccc(O)cc2)CC1 ?
KCNQ2 pot: 1.03; KCNQ2 pot baseline: -1.31

What do the screens show for `CCOCC(=O)Nc1cc([N+](=O)[O-])ccc1C`?
KCNQ2 pot: 0.22; KCNQ2 pot baseline: -1.65

How did O=C1C(Cl)=C(Nc2ccc3cn[nH]c3c2)C(=O)c2ccccc21 do in these assays?
KCNQ2 pot: 0.36; KCNQ2 pot baseline: -0.85

What do the screens show for `CC1CCOC2(O1)C(=O)N(CN1CCN(c3ccccc3F)CC1)c1ccccc12` (centres undefined)?
KCNQ2 pot: 0.52; KCNQ2 pot baseline: -2.48

How did O=C(Cn1cnc([N+](=O)[O-])n1)N/N=C/c1cccc(Cl)c1 do in these assays?
KCNQ2 pot: 1.56; KCNQ2 pot baseline: -0.75

Results for C=CCc1cccc(/C=N/NC(=O)CCC(=O)Nc2ccc(C)cc2)c1O ?
KCNQ2 pot: 3.53; KCNQ2 pot baseline: -0.08

What do the screens show for `CCC(=O)N1CCc2cc(Br)cc(S(=O)(=O)CCC(=O)NCCc3ccccc3)c21`?
KCNQ2 pot: 0.51; KCNQ2 pot baseline: -0.03

What do the screens show for `O=S(=O)(Nc1cccc(-c2ccc3nncn3n2)c1)c1cc(F)ccc1F`?
KCNQ2 pot: 1.07; KCNQ2 pot baseline: 1.87

What do the screens show for `CC(C)C(=O)N1c2ccccc2NC2=C(C(=O)CCC2)C1c1ccc(N(C)C)cc1` (centres undefined)?
KCNQ2 pot: 1.81; KCNQ2 pot baseline: -1.38

Results for Cc1c(NC(=S)Nc2ccccc2)c(=O)n(-c2ccccc2)n1C ?
KCNQ2 pot: 1.04; KCNQ2 pot baseline: 0.1

What do the screens show for `CCC1CCCCN1CCCNC(=O)c1ccc(CS(=O)(=O)c2ccc(Br)cc2)o1` (centres undefined)?
KCNQ2 pot: 0.66; KCNQ2 pot baseline: -0.04

What do the screens show for `CC(Oc1ccccc1Cl)C(=O)N1CCOCC1` (centres undefined)?
KCNQ2 pot: 0.6; KCNQ2 pot baseline: 0.17

What do the screens show for `O=[N+]([O-])c1ccc2ncnc(Nc3ccc4c(c3)OCCO4)c2c1`?
KCNQ2 pot: 0.5; KCNQ2 pot baseline: 0

Results for O=C(N/N=C/c1ccc(Br)s1)c1cccc([N+](=O)[O-])c1 ?
KCNQ2 pot: 0.17; KCNQ2 pot baseline: -0.57

Results for Cc1ccc(C(NC(=O)N2CCN(C)CC2)C(Cl)Cl)cc1F (centres undefined) ?
KCNQ2 pot: 0.02; KCNQ2 pot baseline: 0.96

What do the screens show for `Cc1nn(C)c(C)c1CNC(=O)Nc1cccc(Cl)c1`?
KCNQ2 pot: 0.3; KCNQ2 pot baseline: -0.9

Results for COc1ccccc1CNC(=O)CN1CCC(n2cnc3cc(F)ccc32)CC1 ?
KCNQ2 pot: 2.51; KCNQ2 pot baseline: 1.54

Results for CC(NC(=O)C1CCN(S(=O)(=O)c2cccc3cccnc23)CC1)c1ccccc1 (centres undefined) ?
KCNQ2 pot: 4.43; KCNQ2 pot baseline: -1.02

How did COc1ccc2nc(Nc3ccc4c(c3)OCO4)sc2c1 do in these assays?
KCNQ2 pot: 0.88; KCNQ2 pot baseline: -0.01

How did CSc1cccc(NC(=O)C2CC(=O)N(Cc3ccccc3)C2)c1 (centres undefined) do in these assays?
KCNQ2 pot: 0.74; KCNQ2 pot baseline: -2.11

How did O=C(Nc1ccc(Oc2ccccc2)nc1)C1CCCCN1Cc1ccc(OCCO)cc1 (centres undefined) do in these assays?
KCNQ2 pot: 0.65; KCNQ2 pot baseline: 1.12

What do the screens show for `CN(C)c1ccc(C(=S)NC2CCCCC2)cc1`?
KCNQ2 pot: 1.1; KCNQ2 pot baseline: 0.03

Results for O=c1nc(SCc2cccc(C(F)(F)F)c2)nc2ccccn12 ?
KCNQ2 pot: 1.57; KCNQ2 pot baseline: -1.56

Results for COc1ccc2nc(N/C(N)=N/C(=S)Nc3c(C)cccc3C)nc(C)c2c1 ?
KCNQ2 pot: 1.98; KCNQ2 pot baseline: 0.51

What do the screens show for `C=CCC1(O)C(=O)Nc2ccccc21` (centres undefined)?
KCNQ2 pot: 0.8; KCNQ2 pot baseline: 1.39

Results for CN(C)c1nc(N)nc(CSc2nnnn2C)n1 ?
KCNQ2 pot: 0.41; KCNQ2 pot baseline: 1.16

What do the screens show for `Cc1cc(C)n(C(=O)c2cccc(S(=O)(=O)N3CCCCC3)c2)n1`?
KCNQ2 pot: 0.45; KCNQ2 pot baseline: -3.64

How did Cc1ccc(-c2csc(N3CCN(CCCn4c(-c5ccncc5)nc5ccccc54)CC3)n2)cc1 do in these assays?
KCNQ2 pot: 0.05; KCNQ2 pot baseline: -1.51

What do the screens show for `Cc1ccc(NC(=O)CNCc2cccs2)c(Br)c1`?
KCNQ2 pot: 1.46; KCNQ2 pot baseline: 0.25

Results for CC(=O)N1CCc2cc(S(=O)(=O)CCC(=O)N3CCN(c4ccccn4)CC3)ccc21 ?
KCNQ2 pot: 0.25; KCNQ2 pot baseline: -0.93

How did CCOCCCNC(=O)c1ccccc1OC1CCN(S(C)(=O)=O)CC1 do in these assays?
KCNQ2 pot: 2.37; KCNQ2 pot baseline: 0.68

Results for CC(C)CN(C1CCS(=O)(=O)C1)S(=O)(=O)c1ccc(C(C)C)cc1 (centres undefined) ?
KCNQ2 pot: 1.05; KCNQ2 pot baseline: 0.82

How did O=C(Nc1cccc(O)c1)c1noc2c1CCc1ccccc1-2 do in these assays?
KCNQ2 pot: 0.86; KCNQ2 pot baseline: -0.14

How did CCOC1(/N=C(\C)NS(=O)(=O)c2ccc(Cl)cc2)C(C)=CC(=O)C=C1C do in these assays?
KCNQ2 pot: 0.89; KCNQ2 pot baseline: -0.21

Results for N#Cc1cccc2c1-c1ccccc1/C2=N/NC(N)=S ?
KCNQ2 pot: 0.03; KCNQ2 pot baseline: 0.16

Results for Brc1cccc(CN2CCCCCCC2)c1 ?
KCNQ2 pot: 0.46; KCNQ2 pot baseline: 2.41

What do the screens show for `Cc1cc(N2CCCC2)nc2c(C)cccc12`?
KCNQ2 pot: 1.11; KCNQ2 pot baseline: -0.02

Results for NC(=O)CCS(=O)(=O)CCN1CCCCC1 ?
KCNQ2 pot: 1.84; KCNQ2 pot baseline: -2.31

How did COc1cccc(CNc2nnnn2C)c1 do in these assays?
KCNQ2 pot: 0.78; KCNQ2 pot baseline: 0.17

The closing seven records of the section before open the next one.
How did O=C(Nc1cccc(O)c1)c1noc2c1CCc1ccccc1-2 do in these assays?
KCNQ2 pot: 0.86; KCNQ2 pot baseline: -0.14

How did CCOC1(/N=C(\C)NS(=O)(=O)c2ccc(Cl)cc2)C(C)=CC(=O)C=C1C do in these assays?
KCNQ2 pot: 0.89; KCNQ2 pot baseline: -0.21

Results for N#Cc1cccc2c1-c1ccccc1/C2=N/NC(N)=S ?
KCNQ2 pot: 0.03; KCNQ2 pot baseline: 0.16

Results for Brc1cccc(CN2CCCCCCC2)c1 ?
KCNQ2 pot: 0.46; KCNQ2 pot baseline: 2.41

What do the screens show for `Cc1cc(N2CCCC2)nc2c(C)cccc12`?
KCNQ2 pot: 1.11; KCNQ2 pot baseline: -0.02

Results for NC(=O)CCS(=O)(=O)CCN1CCCCC1 ?
KCNQ2 pot: 1.84; KCNQ2 pot baseline: -2.31

How did COc1cccc(CNc2nnnn2C)c1 do in these assays?
KCNQ2 pot: 0.78; KCNQ2 pot baseline: 0.17

What do the screens show for `O=C1CCCC(=O)C1C1c2ccccc2CCN1C(=O)CCl` (centres undefined)?
KCNQ2 pot: 0.79; KCNQ2 pot baseline: 1.05

What do the screens show for `COc1ccc(CCN2CCCC(CN(C)Cc3cc(Cl)c(O)c(OC)c3)C2)cc1` (centres undefined)?
KCNQ2 pot: 0.5; KCNQ2 pot baseline: 1.78

Results for COCCCNc1nc(=S)[nH]c2cc(OC)c(OC)cc12 ?
KCNQ2 pot: 1.45; KCNQ2 pot baseline: -0.08

Results for COc1ccc(NS(=O)(=O)c2ccc3nc(COc4ccc(C#N)cc4)[nH]c3c2)cc1 ?
KCNQ2 pot: 2.11; KCNQ2 pot baseline: -0.68

Results for CCOC(=O)C1CCN(C2CC(=O)N(c3ccc(OCC)cc3)C2=O)CC1 (centres undefined) ?
KCNQ2 pot: 0.09; KCNQ2 pot baseline: -0.97

What do the screens show for `CCOCCc1nnc(NC(=O)CSc2ccccc2)s1`?
KCNQ2 pot: 0.27; KCNQ2 pot baseline: -0.28

Results for C#CCN(C(=O)c1ccc(OC)c(OC2CCN(C(C)C)CC2)c1)C1CCCCC1 ?
KCNQ2 pot: 0.95; KCNQ2 pot baseline: -0.02

Results for O=C(NCCc1ccccc1)C(=O)NCC1(c2ccccc2)CCCC1 ?
KCNQ2 pot: 0.8; KCNQ2 pot baseline: -1.38

How did O=C(COc1ccccc1)NCC(=O)N/N=C/c1ccco1 do in these assays?
KCNQ2 pot: 1.4; KCNQ2 pot baseline: -1.61

What do the screens show for `CCC(CC)C1C(C#N)=C(N)Oc2n[nH]c(C)c21` (centres undefined)?
KCNQ2 pot: 1.08; KCNQ2 pot baseline: -0.82

How did Cc1ccc(S(=O)(=O)NCCNc2ccc([N+](=O)[O-])cc2)cc1 do in these assays?
KCNQ2 pot: 0.29; KCNQ2 pot baseline: -2.34

What do the screens show for `N#Cc1ccc(CSc2nnc3ccccn23)cc1`?
KCNQ2 pot: 0.55; KCNQ2 pot baseline: 0.15

What do the screens show for `COc1ccc(CC(=O)OC(C)C(=O)c2ccc(C)cc2)cc1` (centres undefined)?
KCNQ2 pot: 0.15; KCNQ2 pot baseline: -0.62

How did COc1ccc(C(=O)COC(=O)CCS(=O)(=O)c2ccc(C)cc2)c(OC)c1 do in these assays?
KCNQ2 pot: 1.06; KCNQ2 pot baseline: 0.01

Results for CC(C)(C)OC(=O)NCCCCc1cn(CC(=O)N2CCN(C(=O)OC(C)(C)C)CC2)nn1 ?
KCNQ2 pot: 0.62; KCNQ2 pot baseline: -0.01

Next section, overlapping the part above by 3 compounds.
What do the screens show for `COc1ccc(CC(=O)OC(C)C(=O)c2ccc(C)cc2)cc1` (centres undefined)?
KCNQ2 pot: 0.15; KCNQ2 pot baseline: -0.62

How did COc1ccc(C(=O)COC(=O)CCS(=O)(=O)c2ccc(C)cc2)c(OC)c1 do in these assays?
KCNQ2 pot: 1.06; KCNQ2 pot baseline: 0.01

Results for CC(C)(C)OC(=O)NCCCCc1cn(CC(=O)N2CCN(C(=O)OC(C)(C)C)CC2)nn1 ?
KCNQ2 pot: 0.62; KCNQ2 pot baseline: -0.01

What do the screens show for `Cc1ccc(C(=O)N2CCOCC2)cc1S(=O)(=O)N1CCCCC1`?
KCNQ2 pot: 0.97; KCNQ2 pot baseline: 0.16

How did CCOC(=O)C1CCCN(S(=O)(=O)c2ccc(S(=O)(=O)N3CCCC3)cc2)C1 (centres undefined) do in these assays?
KCNQ2 pot: 1.12; KCNQ2 pot baseline: -1.56

What do the screens show for `O=S(=O)(c1ccccc1C(F)(F)F)N1C=CC(C(F)(F)F)=NCC1`?
KCNQ2 pot: 1.54; KCNQ2 pot baseline: -0.72

How did CN(C)S(=O)(=O)c1cccc(C(=O)OCC(=O)c2c(N)n(C)c(=O)n(C)c2=O)c1 do in these assays?
KCNQ2 pot: 1.68; KCNQ2 pot baseline: 1.95

Results for Cc1ccc(C(=O)ONc2ccc(N=NC(=O)c3ccccc3O)cc2)cc1 ?
KCNQ2 pot: 0.11; KCNQ2 pot baseline: -1.64

Results for CC1CN(C)C(C)CC1NCc1ccc2c(c1)OCO2 (centres undefined) ?
KCNQ2 pot: 0.41; KCNQ2 pot baseline: 0.12

Results for CCOC(=O)c1ccc(NC(=S)NCCCN2CCCCC2)cc1 ?
KCNQ2 pot: 0.71; KCNQ2 pot baseline: -0.21

How did CCC12CSc3nc(Cl)ccc3N1C(=O)C(=O)N2C (centres undefined) do in these assays?
KCNQ2 pot: 0.78; KCNQ2 pot baseline: -1.36

Results for CC(=O)OCC(=O)c1ccc2ccn(C(C)=O)c2c1 ?
KCNQ2 pot: 0.18; KCNQ2 pot baseline: -0.02

What do the screens show for `COc1ccc(C(=O)NCCNc2nc3c(C)cccc3cc2C#N)cc1OC`?
KCNQ2 pot: 0.43; KCNQ2 pot baseline: 1.71

Results for O=C(NCc1cccnc1)c1sc2cc(Cl)ccc2c1Cl ?
KCNQ2 pot: 2.81; KCNQ2 pot baseline: -0.21

What do the screens show for `Cc1ccccc1NC(=O)CCNS(=O)(=O)c1cccc2nsnc12`?
KCNQ2 pot: 0.46; KCNQ2 pot baseline: -0.32

How did CN(C)S(=O)(=O)c1ccc(C(=O)OCc2ccc(C#N)cc2)cc1 do in these assays?
KCNQ2 pot: 0.02; KCNQ2 pot baseline: 0.28

Results for CCO[C@H]1OC(C(=O)N2CCN(C)CC2)=C[C@@H](C)[C@@H]1CCCO ?
KCNQ2 pot: 1.46; KCNQ2 pot baseline: -0.95

Results for COc1ccc(OCC(O)COc2ccc(OC)cc2)cc1 ?
KCNQ2 pot: 0.07; KCNQ2 pot baseline: 0.29

An excerpt; the hit share may differ from the screen's.
